# Compound activity: PubChem BioAssay, several laboratories
# Arbovirus anti: antivirals against arbovirus infection, primary screen, cell-based, full library, 10K replicate subset; arbovirus infection cell-based antiviral screen; inhibition, % at 10 µM; 0.37% of 200,000 active;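 active means inhibition from about 30%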;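 further: bluetongue infection of BSR cells; cell survival read as ATP light after 72 h; 0% = infected wells without compound and 100% = uninfected wells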
# Mtb betalactam: beta-lactam sensitization of Mtb H37Rv, H37Rv; M. tuberculosis H37Rv growth with meropenem, percent inhibition; hits of this screen are not shown here; inhibition, % at 25 µM; 0.27% of 330,000 active;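 active means about 74% or more and at least 40 points above the plate without the antibiotic, then above 30% in a dose series; inconclusive means first-round hits that could not be retested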;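 further: growth measured after seven days incubation then overnight dye step; 0% = bacteria only wells and 100% = bacteria with antibiotic; twin plates without the antibiotic show which effects depend on it; some results filed as inactive read as strong as hits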
# RecA splice inh: Mtb RecA intein splicing inhibitors, primary screen, biochemical, fluorescence, HTS; cell-free RecA intein splicing; inhibition, %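 (about 9 µM by stock and volumes)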; 0.75% of 290,000 active; Protein RecA (Mycobacterium tuberculosis (strain ATCC 25618 / H37Rv)), P9WHJ3; in the data active means inhibition above about 30%; inconclusive means no clear call, values can overlap the other calls;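 further: 0% = vehicle wells and 100% = reference inhibitor control wells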
# Target sequence (P9WHJ3 whole entry, looked up, canonical isoform): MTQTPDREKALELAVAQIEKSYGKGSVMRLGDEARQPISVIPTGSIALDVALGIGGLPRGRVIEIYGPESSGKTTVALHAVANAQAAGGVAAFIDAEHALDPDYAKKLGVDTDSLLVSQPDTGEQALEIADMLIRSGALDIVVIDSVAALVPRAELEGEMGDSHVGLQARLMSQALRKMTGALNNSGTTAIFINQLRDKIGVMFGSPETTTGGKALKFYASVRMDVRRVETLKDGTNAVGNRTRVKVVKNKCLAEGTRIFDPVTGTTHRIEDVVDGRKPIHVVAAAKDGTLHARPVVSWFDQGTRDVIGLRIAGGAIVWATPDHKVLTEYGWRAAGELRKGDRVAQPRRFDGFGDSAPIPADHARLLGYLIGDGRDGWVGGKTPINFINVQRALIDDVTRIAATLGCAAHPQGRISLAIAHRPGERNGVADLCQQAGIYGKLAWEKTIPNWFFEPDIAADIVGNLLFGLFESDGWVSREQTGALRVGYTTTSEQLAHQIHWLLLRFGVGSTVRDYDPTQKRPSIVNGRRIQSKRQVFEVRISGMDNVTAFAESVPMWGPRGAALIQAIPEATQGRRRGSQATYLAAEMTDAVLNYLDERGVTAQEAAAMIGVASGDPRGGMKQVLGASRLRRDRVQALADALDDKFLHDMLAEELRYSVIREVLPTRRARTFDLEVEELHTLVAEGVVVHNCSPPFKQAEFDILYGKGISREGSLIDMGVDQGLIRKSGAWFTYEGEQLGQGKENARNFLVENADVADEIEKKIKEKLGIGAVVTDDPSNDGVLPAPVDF
# Mtb H37Rv: M. tuberculosis H37Rv growth inhibitors, H37Rv strain (AID 1626) | M. tuberculosis H37Rv growth inhibition; higher % means a stronger effect | inhibition, % at 10 µM, or IC50 in µM where a hit was titrated | 0.95% of 220,000 active;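 active means confirmed in a dose series; inconclusive means inhibition above 80% but not taken into the dose series; inactive means below 80% or under 30% at every dose of the series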;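 further: bacteria incubated seven days before Alamar blue readout; 0% = bacteria only wells and 100% = bacteria with antibiotic wells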
# YopH inh: YopH tyrosine phosphatase inhibitors, primary screen, biochemical, fluorescence Ex485/Em525; YopH tyrosine phosphatase [Yersinia enterocolitica]; inhibition, %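 (about 10 µM by stock and volumes)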; 0.16% of 140,000 active;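 active means inhibition of 50% or more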;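 further: controls were vehicle for no effect and minimum signal wells for full effect; inactives centre near -20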
# Arbovirus anti repeat: further read-out of Arbovirus anti, marked with its call; inhibition, %; measured here: 10K subset replicate screen; many hits read low in the repeat;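 first of two repeat runs on a subset; 0% = infected and 100% = uninfected wells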
# * hit, by the source's call; ? = inconclusive; / = no result given. This is a subset, so the mix of outcomes need not match the whole.
SMILES,Arbovirus anti,Mtb betalactam,RecA splice inh,Mtb H37Rv,YopH inh,others
CCC(=O)Nc1cccc(-n2nnnc2SCC(=O)N(C(C)C)C(C)C)c1,18,-2,/,6%,/,
O=C(CSc1nc2ccccc2c(=O)[nH]1)Nc1ccc(N2CCOCC2)c(Cl)c1,/,3,0.4,/,/,
O=C(O)CCCNC(=O)CCn1nnc2ccccc2c1=O,/,-5,5.0,-8%,/,
CC(C)(C)NCC(O)COc1cccc2[nH]c(=O)[nH]c12 (centres undefined),/,2,2.4,-7%,/,
CCCCc1n[nH]c2c1/C(=N/OCC)CC(C)(C)C2,/,56,9.9,13%,/,
COc1ccc(C2/C(=C(/O)c3ccc(S(=O)(=O)N4CCOCC4)cc3)C(=O)C(=O)N2CCN2CCOCC2)cc1 (centres undefined),/,-13,-4.0,/,/,
C/C(=N\NC(=O)CN1CCN(Cc2ccc(C)cc2)CC1)c1ccncc1,-4,74,1.9,-1%,-25,
Cc1nc(SCc2ccc(F)cc2)n[nH]1,/,3,-1.6,/,/,
O=C(COc1ccc([N+](=O)[O-])cc1)NCCc1nc2ccccc2[nH]1,/,-12,/,-8%,/,
COc1ccc(N2CCN(CCN3C(=O)c4ccccc4C3=O)CC2)cc1,/,2,2.1,/,/,
COc1ccc(CCNC(=O)c2ccccc2Cl)cc1OC,-2,0,-0.8,1%,/,
C=C(C)Cn1cnc2cc(C)c(C)cc21,5,-5,0.2,62%,/,
c1ccc(Cn2nnc3c(NCCN4CCOCC4)ncnc32)cc1,6,?,-1.8,10%,-45,
O=C(NC1CCOC1)c1ccc(OC2CCN(CCc3ccccc3)CC2)cc1 (centres undefined),-2,-8,-4.0,0%,/,
CC(=O)c1cccc(NC(=O)c2noc3c2CCc2ccccc2-3)c1,-3,1,0.4,-3%,/,
CN1CCC(N(C)C(=S)NC(=O)C23CC4CC(CC(C4)C2)C3)CC1,-7,-6,-1.2,-3%,-3,
CC1(C)C2CCC13CS(=O)(=O)N[C@@H]3C2 (some centres undefined),-1,-4,3.1,2%,-26,
COC(=O)c1coc(-c2ccc(OC)cc2)c1C(=O)OC,-1,-3,2.6,5%,-12,
CCOC(=O)C1Nc2c(cc(C(F)(F)F)cc2[N+](=O)[O-])C2c3ccccc3CC12 (centres undefined),/,99,-3.6,24%,/,
Cc1ccc(Cc2nnc(SCC(=O)Nc3ccccc3Cl)[nH]c2=O)cc1,/,0,0.0,/,/,
CCOC(=O)c1cccc(NC(=O)c2ccc(F)cc2F)c1,/,3,1.3,-5%,/,
COc1cccc(NC(=O)CSc2nc3scc(C)c3c(=O)[nH]2)c1,/,-4,6.1,/,/,
O=C(/C=C/c1ccc[nH]1)c1ccc(F)cc1,3,0,-1.0,5%,/,
COc1ccc(NC(=S)NCCCN2CCCC2=O)c(OC)c1,8,0,-0.6,0%,/,
CCOC(=O)Cn1cc(/C=N/NC(=O)c2cc3ccccc3o2)c2ccccc21,/,-10,2.6,9%,/,
CCCCNc1cnn(-c2ccccc2)c(=O)c1Cl,0,1,0.0,8%,/,
CC(C)(C)NC(=O)C1CC2CCCCC2CN1 (centres undefined),9,-2,-0.8,5%,/,
O=C(Nc1ccc(S(=O)(=O)N2CCCCC2)cc1)c1cnccn1,9,-5,-0.5,-1%,-8,
CC(=O)Nc1cccc(/C(C)=N/NC(=O)c2ccc3c(c2)OCO3)c1,3,-6,-0.3,4%,/,
CN(C)c1ccc(/C=N/N=C2/SC(CC(=O)O)C(=O)N2c2ccc(O)cc2)cc1 (centres undefined),2,1,-27,-1%,/,
CCOc1nc(C)ccc1-c1noc(-c2cccnc2)n1,/,0,1.3,/,/,
Cc1cc(-c2nn(-c3ccccc3F)cc2CN2CCCC(CO)C2)c(C)s1 (centres undefined),-6,-13,0.3,-7%,/,
O=C(CN1C(=O)CSC1=O)N1CCc2ccccc2C1,2,1,4.3,-5%,21,
COc1ccc(NS(=O)(=O)c2cccc(C(=O)NCc3cccnc3)c2)cc1,/,-2,1.7,/,/,
CCCCOC(=O)c1ccc(NS(=O)(=O)c2cc(-c3nnnn3CC)ccc2OC)cc1,1,9,-3.6,7%,-27,Arbovirus anti repeat=3
Cc1ccccc1/C=C/C12NC(=O)CN1c1ccccc1C2(C)C (centres undefined),/,-2,0.4,2%,/,
COc1ccc([N+](=O)[O-])cc1NC(=O)C(C)c1ccccc1 (centres undefined),-11,3,5.9,-4%,-35,
COc1cc2ncnc(NCCCN3CCOCC3)c2cc1OC,/,-4,-14,6%,/,
Cc1ccc(OCC(=O)N2CCCCCCC2)cc1,/,-9,-0.2,/,/,
Cn1c(C(=O)N2CCC(C(=O)NCc3ccccc3)CC2)cc2sccc21,/,4,-0.5,/,/,
COc1cc(C(=O)N2CCN(C(=O)c3ccco3)CC2)cc(OC)c1OC,-3,3,0.9,-1%,-33,Arbovirus anti repeat=2
Nc1ncnc(Nc2cc(C(F)(F)F)cc(C(F)(F)F)c2)n1,/,0,-2.1,5%,/,
CCCOC(=O)c1ccc(NC(=O)c2cc(OC)c(OC)c(OC)c2Br)cc1,-6,79,10,-2%,-45,
COc1ccc(NC(=O)CN2C(=O)c3cccc4cccc2c34)c(OC)c1,2,-6,-1.3,4%,-173,
COc1ccc(C(=O)Nc2ccc3ncccc3c2)cc1,/,5,0.9,/,/,
O=C(Nc1cccc(F)c1)c1ccc(-c2ccccc2C(F)(F)F)o1,-22,/,/,-13%,-17,
O=c1cc(CO)occ1OCc1c(F)cccc1Cl,10,-9,0.4,-2%,/,
CC(=O)NC(Cc1ccccc1)C(=O)N1CCN(C(=O)c2cccs2)CC1 (centres undefined),14,-2,-2.8,-4%,-16,
CC1=C/C(=N\S(=O)(=O)c2ccccc2)C(C(C)C)=CC1=O,-10,0,5.5,73%,/,
CCOc1ccc2[nH]c(=O)c(CN(CC3COCCO3)C(=O)C3CC3)cc2c1 (centres undefined),6,2,-0.9,/,-17,
CCn1ncc([N+](=O)[O-])c1C(=O)Nc1nc2cccc(C)c2s1,1,6,3.9,4%,/,
O=C(Nc1ccc2nc(-c3ccc4nc[nH]c4c3)[nH]c2c1)c1cccs1,4,14,6.0,-1%,-1,
O=C(NCc1nc2ccccc2[nH]1)c1cccc(S(=O)(=O)N2CCCC2)c1,6,0,1.0,/,-11,
Cn1c(=O)c(Oc2cc(Cl)cc(Cl)c2)nc2ccccc21,2,-2,-1.3,0%,-41,
Cc1ccc(C)c(NS(=O)(=O)c2ccc(-c3cnc(C4CC4)o3)cc2)c1,/,-4,12,/,/,
CCC1(CC)Cc2ccccc2C(Nc2c(C)n(C)n(-c3ccccc3)c2=O)=N1,2,3,0.5,-3%,-10,
CSC(=S)N/N=C(\C)c1ccccc1,-4,100,2.3,?,/,
Cc1nc2ccccc2c(=O)n1-c1ccc(Br)cc1[N+](=O)[O-],-7,-1,-4.3,-2%,/,
c1ccc(CCN2CN(CCCN3CCOCC3)c3nc4ccccc4n3C2)cc1,15,0,3.0,-11%,-45,
CCn1c2ccccc2c2cc(/C(C)=N/O)ccc21,-11,5,7.1,/,-35,
# Later entries:
SMILES,Arbovirus anti,Mtb betalactam,RecA splice inh,Mtb H37Rv,YopH inh,others
O=C(Nc1nc2ccccc2c(=O)s1)c1ccc(F)cc1Cl,/,14,-2.7,/,/,
CCOc1cccc(N2C(=O)CC(N3CCN(c4ccc(S(=O)(=O)CC)cc4)CC3)C2=O)c1 (centres undefined),5,-10,3.5,0%,-9,
CC(C)(C)c1ccc(O)c(/C=N\O)c1,8,26,-9.5,2%,-5,
Cn1ccnc1SCC(=O)c1ccc2ccccc2c1,-2,-8,2.9,4%,/,
COc1ccccc1CNC(=O)COC(=O)CNS(=O)(=O)c1ccc(C)cc1,/,1,-0.8,/,/,
COc1ccc(C(c2nnnn2Cc2ccccc2)N2CCN(c3nc4ccccc4s3)CC2)cc1 (centres undefined),9,13,12,12%,-28,
CC1=C(C(=O)OCCOc2ccccc2)C(c2ccsc2)NC(=O)N1C (centres undefined),-1,-1,0.5,11%,/,
Cc1ccc(SCC(=O)OCC(=O)N(CC(C)C)C2CCS(=O)(=O)C2)cc1C (centres undefined),/,1,-1.1,/,/,
OC(COCc1ccc2c(c1)OCO2)CN1CCN(Cc2ccccc2)CC1 (centres undefined),3,1,-2.7,4%,-8,
CN1CCN(Cc2nnc(-c3ccccc3)o2)CC1,/,2,-2.9,/,/,
CC(=O)C1(C)N(O)C(C)(C)C(c2cccs2)=[N+]1[O-] (centres undefined),-5,-11,-4.7,-4%,/,
Cc1ncc([N+](=O)[O-])n1CC(=O)Nc1ccc2c(c1)OCO2,9,6,0.8,0%,/,
Cc1ccc(NS(=O)(=O)c2cc(C(=O)N3CCc4ccccc4C3)ccc2Cl)cc1,-22,-4,/,10%,-14,
CC(=O)OC(COc1ccccc1)Cn1cnc2ccccc21 (centres undefined),2,-8,0.1,-6%,/,
Fc1ccc(OCCCCN2CCOCC2)cc1,-2,1,5.6,2%,/,

# Arranged by SMILES length (falling): part of the list above.
SMILES,Arbovirus anti,Mtb betalactam,RecA splice inh,Mtb H37Rv,YopH inh,others
CCOc1cccc(N2C(=O)CC(N3CCN(c4ccc(S(=O)(=O)CC)cc4)CC3)C2=O)c1 (centres undefined),5,-10,3.5,0%,-9,
COc1ccc(C(c2nnnn2Cc2ccccc2)N2CCN(c3nc4ccccc4s3)CC2)cc1 (centres undefined),9,13,12,12%,-28,
Cc1ccc(NS(=O)(=O)c2cc(C(=O)N3CCc4ccccc4C3)ccc2Cl)cc1,-22,-4,/,10%,-14,
Cc1ccc(SCC(=O)OCC(=O)N(CC(C)C)C2CCS(=O)(=O)C2)cc1C (centres undefined),/,1,-1.1,/,/,
COc1ccccc1CNC(=O)COC(=O)CNS(=O)(=O)c1ccc(C)cc1,/,1,-0.8,/,/,
Cc1nc2ccccc2c(=O)n1-c1ccc(Br)cc1[N+](=O)[O-],-7,-1,-4.3,-2%,/,
CC1=C(C(=O)OCCOc2ccccc2)C(c2ccsc2)NC(=O)N1C (centres undefined),-1,-1,0.5,11%,/,
OC(COCc1ccc2c(c1)OCO2)CN1CCN(Cc2ccccc2)CC1 (centres undefined),3,1,-2.7,4%,-8,
O=C(Nc1nc2ccccc2c(=O)s1)c1ccc(F)cc1Cl,/,14,-2.7,/,/,
CC(=O)OC(COc1ccccc1)Cn1cnc2ccccc21 (centres undefined),2,-8,0.1,-6%,/,
CCn1c2ccccc2c2cc(/C(C)=N/O)ccc21,-11,5,7.1,/,-35,
CN1CCN(Cc2nnc(-c3ccccc3)o2)CC1,/,2,-2.9,/,/,
Cn1ccnc1SCC(=O)c1ccc2ccccc2c1,-2,-8,2.9,4%,/,
CC(C)(C)c1ccc(O)c(/C=N\O)c1,8,26,-9.5,2%,-5,
Fc1ccc(OCCCCN2CCOCC2)cc1,-2,1,5.6,2%,/,

# Next section.
SMILES,Arbovirus anti,Mtb betalactam,RecA splice inh,Mtb H37Rv,YopH inh,others
CCOc1cc(C(c2c(C)[nH][nH]c2=O)c2c(C)[nH][nH]c2=O)ccc1OS(=O)(=O)c1ccc(C)cc1,0,-1,97*,2%,-34,
COc1ccc(/C=N/NC(=O)CCN2CCN(c3ccccc3)CC2)c(OC)c1OC,5,-3,-0.5,-3%,-28,
COc1ccc2c(c1)/C(=N/OC(=O)c1cccs1)CCC2,5,99,0.4,?,/,
O=C(Nc1ccccc1C(=O)NCc1ccco1)c1ccccc1,-2,-10,0.1,9%,-35,Arbovirus anti repeat=-9
CCCCOC(=O)c1ccc(NC(=O)c2cc(Cl)c(Cl)cc2C(=O)O)cc1,23,85,6.2,?,/,
Cc1cccn2c(=O)c(C=NCCO)c(Nc3ccc(Cl)cc3)nc12,-11,-3,-0.3,2%,/,
Cc1ccccc1N=Cc1cccc(O)c1O,-26,34,-2.6,30%,-20,
COc1ccc(Cl)cc1N1C(=NC(=O)C2CCCO2)SC2CS(=O)(=O)CC21 (centres undefined),/,0,-0.6,/,/,
CC(=O)NC(CC(=O)OCC(=O)N1CCc2ccccc21)c1ccccc1 (centres undefined),/,-4,1.8,/,/,
O=C(Nc1ccccc1F)C1CCN(C(=O)NCc2ccccc2)CC1,/,7,0.7,/,/,
C=CCc1cccc2cc(C(=O)OCC)c(=O)oc12,4,4,-0.5,-6%,-26,
COc1ccc(N2CCN(C(=O)c3cc(N4C(=O)C5C6CCC(C6)C5C4=O)ccc3Cl)CC2)cc1 (centres undefined),11,-1,-1.8,5%,-12,
CC1(c2nnc(-c3ccc(Cl)cc3)o2)CC(c2cccc(Cl)c2)=NO1 (centres undefined),/,1,-0.5,-9%,/,
